Bioassay records: PubChem BioAssay, National Center for Advancing Translational Sciences (NCATS)
gsp agonist: gsp mutant agonism | gsp mutant cells, cAMP HTRF, 30 min; control for the full effect not named in the record | Potency, µM (titrated, usually from 76.9 µM), for the others: at the top dose activation (cAMP increase), most hits filed as activators | hit rate 0.13% among 340,000 | AID 624287; active = well fitted activation curve with a large enough effect; inconclusive = small, poorly fitted or top-dose-only effect, or another doubt; inactive = no such curve, though single readings can be large or run the other way; cell line not stated here;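 note: phosphodiesterase inhibitor Ro 20-1724 added with compounds to block cAMP breakdown; potency is the fitted concentration of half-maximal effect; nearly all actives have a fitted effect of over 60% in size; about a fifth of the inactives were tested at one dose only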
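Cells stably selected in G418 were plated at 2000/well, grown 16-24 hr, then given compounds in DMSO with the PDE inhibitor […] (300 uM solution added) for 30 min at 37C; cAMP was read by HTRF.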
Sfp inh: blocks B. subtilis Sfp PPTase activity; Potency, µM, without a hit: max response, negative = inhibition, most hits filed as inhibitors; hit rate 3.5% among 310,000; Q9F4F7; AID 1490; Biochemical Sfp PPTase activity, qHTS; active = well fitted inhibition curve with a large enough effect; inconclusive = small, poorly fitted or top-dose-only effect, or another doubt; inactive = no such curve, though single readings can be large or run the other way;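 note: the enzyme is Sfp with the accession as filed and its product quenches rhodamine fluorescence; potency is the fitted concentration of half-maximal effect; 0% = enzyme reaction without inhibitor and -100% = no enzyme wells; top concentration of the series not given in the record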
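Reaction rates are the 30-min fluorescence difference (ex 525, em 598 nm) in wells containing 15 nM Sfp, 5 uM rhodamine-CoA and 12.5 uM BHQ-2-YbbR at pH 7.6 with 10 mM MgCl2.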
gsp antag: antagonists of gsp mutant (McCune-Albright syndrome). gsp-mutant cells, cAMP HTRF, 30 min; control for the full effect not named in the record. hit rate 0.4% among 340,000. Potency, µM (doses to about 76.9 µM), for inactives: at the highest dose activity change, negative = inhibition, actives largely listed as inhibitors. AID 624288; active = falling curve of any shape with a large fitted effect; inconclusive = falling curve, mostly with a smaller effect; inactive = flat or rising curve; cell line not stated here;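 note: intracellular cAMP measured with PDE inhibitor Ro 20-1724 present during compound exposure; potency is the fitted concentration of half-maximal effect; % is set by controls: 0 for no effect and ±100 for the full control effect; nearly all actives have a fitted effect of over 65% in size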
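Cells in G418 medium, seeded 16-24 h, 37C; buffer exchange to DPBS + 1 mM CaCl2, 0.5 mM MgCl2, 0.05% BSA; cpds in DMSO + […] (300 uM stock), 30 min 37C; HTRF cAMP detection.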
CtBP-E1A blk: inhibitors of CtBP/E1A interaction | activity change, % (no concentration beside the values) | AlphaScreen GST-E1A/His-CtBP binding, 1536-well; stronger effect = lower value; control for the full effect not named in the record | hit rate 0.49% among 340,000; in the data active means activity change below about -65%; inconclusive means about -30% to -65%; inactive means above about -30%; note: % is set by controls: 0 for no effect and ±100 for the full control effect; compound concentration not given in the record
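Steps: dispense buffer (Tris pH 8.0, NaCl 300 mM, TCEP 1 mM, BSA, Tween 20); add 5X protein mix (GST-E1A, His-CtBP, 125 nM each); pin 23 nL compound; 2 h at 37 °C, dark; add 5X beads (50 ug/mL); 1 h; read.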
TRPV1 PAM: potentiators of human vanilloid receptor 1 (TRPV1) | Q8NER1 | TRPV1-expressing cells, Fluo-8 calcium influx, capsaicin EC20 potentiation; host cell line not named in the record; control for the full effect not named in the record | potentiation, % at 8.33 µM | hit rate 0.02% among 320,000 | AID 540277; active means potentiation above 80%; inconclusive means 30% to 80%; inactive means below 30%; note: 0% is about no effect
Target sequence (Q8NER1 whole entry, looked up): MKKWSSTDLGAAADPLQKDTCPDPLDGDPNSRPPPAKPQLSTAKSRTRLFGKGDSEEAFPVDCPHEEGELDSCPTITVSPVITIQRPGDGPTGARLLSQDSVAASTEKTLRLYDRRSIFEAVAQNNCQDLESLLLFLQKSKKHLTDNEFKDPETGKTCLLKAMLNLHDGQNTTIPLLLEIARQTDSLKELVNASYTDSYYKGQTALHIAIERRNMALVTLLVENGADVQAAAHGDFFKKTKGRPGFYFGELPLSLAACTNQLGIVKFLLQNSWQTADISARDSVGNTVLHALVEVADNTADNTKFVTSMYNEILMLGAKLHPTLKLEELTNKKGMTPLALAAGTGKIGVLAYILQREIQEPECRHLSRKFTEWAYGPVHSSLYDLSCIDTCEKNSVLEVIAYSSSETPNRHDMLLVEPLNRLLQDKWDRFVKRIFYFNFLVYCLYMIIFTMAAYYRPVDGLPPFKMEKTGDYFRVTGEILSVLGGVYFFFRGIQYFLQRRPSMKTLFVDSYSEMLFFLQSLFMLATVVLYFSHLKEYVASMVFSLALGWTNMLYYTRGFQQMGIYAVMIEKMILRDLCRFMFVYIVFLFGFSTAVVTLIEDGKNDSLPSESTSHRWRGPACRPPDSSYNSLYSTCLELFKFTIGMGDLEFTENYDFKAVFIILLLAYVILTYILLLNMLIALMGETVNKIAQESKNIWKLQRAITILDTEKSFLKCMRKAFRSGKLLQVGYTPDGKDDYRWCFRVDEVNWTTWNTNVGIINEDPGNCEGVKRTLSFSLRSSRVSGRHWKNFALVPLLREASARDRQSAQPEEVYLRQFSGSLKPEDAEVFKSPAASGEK
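Fluo-8 calcium influx in TRPV1-expressing cells, kinetic read (ex 480/em 520 nm). Compound added and read 3 min for agonist activity, followed by capsaicin at EC20 final and 2 min further read for enhancement.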
ClpP mod: qHTS Assay for Activators of ClpP | ATP-dependent Clp protease proteolytic subunit (Bacillus subtilis (strain 168)), P80244 | purified B. subtilis ClpP, FRET peptide cleavage, 20 min | Potency, µM (series often up to 57.5 µM), for the others: top-dose activity change, negative = active | hit rate 1.9% among 340,000 | AID 651965, 2013; active = well fitted falling curve with a large enough effect; inconclusive = small, poorly fitted or top-dose-only effect; inactive = no such curve, though single readings can be large or run the other way; note: potency is the fitted concentration of half-maximal effect; the source files actives as falling curves though it sought activators and does not explain the sign; nearly all actives have a fitted effect of over 65% in size; many hits overshoot -100%
Target sequence (P80244 whole entry, looked up): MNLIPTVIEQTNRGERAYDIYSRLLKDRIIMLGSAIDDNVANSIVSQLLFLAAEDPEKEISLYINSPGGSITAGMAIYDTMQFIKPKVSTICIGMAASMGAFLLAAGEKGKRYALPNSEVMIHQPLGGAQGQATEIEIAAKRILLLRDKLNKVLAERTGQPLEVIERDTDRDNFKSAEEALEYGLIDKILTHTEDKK
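Purified B. subtilis ClpP, 10 microg/mL final in Tris/HCl pH8 with KCl, BSA, glycerol and Tween-20, cleaved an Abz/nitrotyrosine-quenched decapeptide. Fluorescence (ex 320, em 430) was read at 0 and 20 min at room temperature. Delta was normalized to 5.8 microM ADEP and DMSO/no-enzyme controls.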
Menin MLL FP FL: inhibitors of human menin-MLL interaction, wild-type MLL peptide; Fluorescence polarization, fluorescein-MLL peptide displacement from menin; FP activity change, % at 61.4 µM; 290,000 tested, under 10 active; inconclusive = falling polarisation curve, or a change in total fluorescence; inactive = total fluorescence flat and polarisation flat or rising; no compound was filed as active; the % refers to the polarisation; negative = inhibition;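 note: % of control where 0% means no effect; inhibitors lower the polarisation; unlabelled MLL peptide was the positive control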
Starred values were filed as active, the others as inactive; ? = inconclusive; · = no result given; [ ] = another dose, or the depositor's remark.

SMILES	gsp agonist	Sfp inh	gsp antag	CtBP-E1A blk	TRPV1 PAM	ClpP mod	Menin MLL FP FL
CCOC(=O)c1ccccc1N=N/C(C(C)=O)=C(/C)O	1.2%	10.6%	-12.3%	-15.4	-2.5	28.2µM*	1.1
O=[N+]([O-])c1ccccc1/C=N/N1CCN(c2ccc(Cl)cc2)CC1	-7.8%	4.9%	8.6%	-20.6	2.8	?	6.6
NC(=S)NNC(=O)c1cccc(Cl)c1	-3.2%[15.4 µM]	?	-1.9%	9.7	8.2	·	-0.3
CCc1ccc2[nH]c(=O)c(C(c3nnnn3CC3CCCO3)N3CCCc4ccccc43)cc2c1 (stereo not drawn)	-9.2%	8.91µM*	-20.4%	1.1	-14.8	0.3%	-2.9
COCCNC(=O)c1ccc(CS(=O)(=O)c2ccccc2OC)o1	?	-11.6%	9.3%	6.0	-4.9	0.5%	0.5
CCCCn1nc(C(=O)Nc2nc3c(s2)CCCC3)c2ccccc2c1=O	-47.2%[inhibitor]	-4.0%	-9.1%	·	0.0	-0.7%	-0.2
CS(=O)(=O)N1CCN(C(=O)COc2ccccc2)CC1	5.1%[15.4 µM]	6.1%	·	-2.7	-7.0	·	-0.7
COc1ccccc1NC(=O)Nc1ccc(NC(=O)c2ccccc2O)cc1	6.2%	16.7%	-25.5%	·	21.4	-23.6%	0.2
CCOC(=O)C(NC(=O)C1C(C)N1S(=O)(=O)c1ccc(C)cc1)C(=O)OCC (stereo not drawn)	-0.6%	9.4%	11.6%	8.2	10.8	-0.7%	·
C/C(=N\NC(=O)c1cc(Br)ccc1O)c1cccc(NC(=O)c2ccccc2F)c1	21.0%[15.4 µM]	15.1%	-13.8%	-11.4	-2.4	-20.7%	·
C[C@H](CO)N1C[C@H](C)[C@@H](CN(C)S(=O)(=O)c2ccccc2)OCCCC[C@H](C)Oc2ccc(NC(=O)CCC(F)(F)F)cc2C1=O	-41.5%[inhibitor]	·	·	4.0	·	1.3%	·
O=[N+]([O-])c1c(Nc2ccccn2)cc(Cl)c2nonc12	11.0%[15.4 µM]	7.94µM*	?	0.7	-6.0	·	?
O=C(CCCC(=O)OCC(Cl)=C(Cl)Cl)Nc1cccc(F)c1	-13.5%	20.6%	-15.7%	15.6	-28.0	-0.2%	3.1
COc1ccc(-n2nnnc2CNC(=O)C(=O)c2c[nH]c3ccccc23)cc1	-6.5%[15.4 µM]	·	4.2%	-0.6	-2.4	·	·
COC(=O)C(C)(C)ONC(=O)Nc1ccc(Br)cc1	-224.1%[inhibitor]	3.8%	8.3%	23.9	-21.5	-0.1%	2.0
COc1cccc(CN2CC(C(=O)NC3CCC3)CCC2=O)c1 (stereo not drawn)	11.2%[15.4 µM]	-2.6%	9.8%	8.5	7.4	·	0.0
Cc1c(NC(=O)c2ccc(S(=O)(=O)N3CCOCC3)cc2)c(=O)n(-c2ccccc2)n1C	40.4%[15.4 µM]	4.1%	6.6%	7.9	3.9	·	1.7
CC1CCCN(C/C=C/c2ccccc2[N+](=O)[O-])C1 (stereo not drawn)	-2.9%	8.2%	-2.2%	7.7	-17.6	-0.1%	6.3
CC(C)[C@H](NC(=O)c1ccc(F)cc1)C(=O)NC1=NCCS1	9.9%[15.4 µM]	15.6%	7.5%	4.1	4.3	-0.5%	0.5
CCN(CC)CCNC(=O)c1ccc(NC(=O)c2cccc(-n3cnnn3)c2)cc1	-48.2%[inhibitor]	·	6.4%	-7.1	5.1	-4.6%	·

Entries listed so far containing bromine (two):
SMILES	gsp agonist	Sfp inh	gsp antag	CtBP-E1A blk	TRPV1 PAM	ClpP mod	Menin MLL FP FL
C/C(=N\NC(=O)c1cc(Br)ccc1O)c1cccc(NC(=O)c2ccccc2F)c1	21.0%[15.4 µM]	15.1%	-13.8%	-11.4	-2.4	-20.7%	·
COC(=O)C(C)(C)ONC(=O)Nc1ccc(Br)cc1	-224.1%[inhibitor]	3.8%	8.3%	23.9	-21.5	-0.1%	2.0

The main list resumes with the 3 entries that preceded the break.
SMILES	gsp agonist	Sfp inh	gsp antag	CtBP-E1A blk	TRPV1 PAM	ClpP mod	Menin MLL FP FL
CC1CCCN(C/C=C/c2ccccc2[N+](=O)[O-])C1 (stereo not drawn)	-2.9%	8.2%	-2.2%	7.7	-17.6	-0.1%	6.3
CC(C)[C@H](NC(=O)c1ccc(F)cc1)C(=O)NC1=NCCS1	9.9%[15.4 µM]	15.6%	7.5%	4.1	4.3	-0.5%	0.5
CCN(CC)CCNC(=O)c1ccc(NC(=O)c2cccc(-n3cnnn3)c2)cc1	-48.2%[inhibitor]	·	6.4%	-7.1	5.1	-4.6%	·
COc1ccccc1NC(=O)NCCN1CCN(C(=O)Nc2ccccc2OC)CC1	-68.4%[inhibitor]	12.1%	1.1%	·	-2.0	0.5%	1.6
CCc1ccc2c(c1)C(=O)CCC2	?	·	4.1%	4.4	·	·	·
OC[C@@H]1[C@@H](c2ccc(Cl)cc2)C(c2cccc(Cl)c2)=NN1c1ccccc1	·	37.9%[activator]	4.8%	91.6	·	3.9%	1.8
CCn1ncc(Br)c1C(=O)Nc1ccc(F)cc1F	-19.6%	6.4%	-3.1%	14.7	8.4	0.0%	-3.0
CC1(C)CC(=O)C(C=NCCN2CCN(C(=O)c3ccc(Br)cc3)CC2)=C(O)C1	-39.9%[inhibitor]	8.6%	2.8%	1.7	20.7	-1.6%	3.8
COCCNC(=S)NC1CC2CCCC(C1)N2Cc1cccs1 (stereo not drawn)	0.7%	-2.8%	8.4%	-11.7	-7.8	1.7%	1.6
O=c1oc2ccccc2cc1-c1nc(-c2ccccc2)no1	1.3%	15.7%	2.0%	0.0	-12.5	28.2µM*	3.7
Fc1ccc(-[n+]2nc(Nc3ccccc3)sc2-c2c3ccccc3cc3ccccc23)cc1	·	44.7µM*	-26.8%	?	-17.0	-1.5%	-4.5
CCC1Oc2ccccc2N(CC(=O)N2CC(C)CC(C)C2)C1=O (stereo not drawn)	?	·	·	5.1	·	1.4%	·
COC(=O)[C@@]12CCCN1[C@H](c1ccc(-c3ccc4c(c3)OCO4)c(OC)c1)[C@H]1C(=O)N(C)C(=O)[C@H]12	·	·	-8.7%	-0.8	?	-2.3%	·
Cc1ccc(NC(=O)CN2CCC(NC(=O)Cc3ccccc3)CC2)cc1C	-4.8%	0.6%	-2.1%	40.2	·	0.5%	-0.6
Cc1[nH]c2ccccc2c1/C=N/Nc1nc(Nc2ccccc2)nc(N2CCOCC2)n1	14.1%	1.8%	-11.5%	-19.5	-11.0	-3.0%	1.5
O=C(c1ccc(-c2nnc(Nc3cccc(Cl)c3)c3ccccc23)cc1)N1C[C@H]2C[C@H](C1)c1cccc(=O)n1C2	0.0%	?	-19.5%	-27.6	10.6	-1.8%	8.2
O=C(Cc1ccc(F)cc1)N/N=C/c1ccncc1	-0.3%[15.4 µM]	6.4%	15.7%	8.4	-0.7	-0.1%	0.8
Cc1nc2c(C)cccn2c(=O)c1NC(=O)c1cccs1	-18.3%[15.4 µM]	·	4.8%	-7.3	8.0	·	·
c1ccc(-n2nnnc2Sc2n[nH]c(-c3ccncc3)n2)cc1	-36.1%[inhibitor]	5.6%	-9.4%	-11.7	-4.2	0.6%	5.0
CCCCC(CC(O)COCC(C)C)C(=O)NNC(=S)Nc1ccccc1 (stereo not drawn)	13.8%	7.5%	0.5%	9.7	29.2	1.1%	-1.3
O=C(NCCc1ccccc1Cl)C1CCC(=O)N(CCCc2ccccc2)C1 (stereo not drawn)	-20.1%	-2.7%	-0.1%	·	4.9	-1.9%	3.2
Cc1nn(C)cc1CNC(=O)C1CCC(=O)N(CC2CCCCC2)C1 (stereo not drawn)	25.7%	11.6%	5.5%	-0.8	7.0	-1.7%	-0.7
O=C(C1CCCCC1)N1CCN(S(=O)(=O)c2ccc(Cl)cc2)CC1	-60.9%[inhibitor]	13.5%	-1.0%	7.0	-12.4	-8.2%	3.4
O=C(NC1CCCC1)C(c1ccncc1)N(C(=O)c1csnn1)c1ccccc1F (stereo not drawn)	4.2%[15.4 µM]	19.1%	2.3%	-0.7	6.2	·	2.6
O=C(O)c1ccccc1NC(=O)c1cc(-c2ccccc2)nc2ccccc12	11.6%[15.4 µM]	10.7%	-21.4%	-23.8	0.9	-2.0%	-1.8
O=C(Nc1ncn[nH]1)c1ccc(Cl)c(Cl)c1	-0.9%[15.4 µM]	·	-0.8%	-0.6	13.9	-1.1%	·
Fc1ccc(NC(=S)NCCc2ccccn2)cc1	30.9%[15.4 µM]	?	9.2%	-3.1	-1.6	·	-4.8
Cc1cccc(N2C(=O)N3[C@H](c4ccc(F)cc4)[C@@H]4C(=O)N(C5CCCCC5)C(=O)[C@@H]4[C@]3(Cc3ccc(Cl)cc3)C2=O)c1	20.7%	20.5%	-18.0%	1.4	-18.8	1.4%	-0.1
COc1ccc(CCC2(C)NC(=O)N(C(C)C(=O)Nc3ccccc3F)C2=O)cc1 (stereo not drawn)	-2.3%	·	2.0%	3.1	-0.3	1.3%	·
O=c1[nH]c(NCCCO)nc2c1C1(CCCC1)Cc1ccccc1-2	-13.9%	-13.1%	?	9.1	-8.4	14.1µM*	?
CN(C)C(=O)COC(=O)c1cccc(S(=O)(=O)Nc2ccc(OCc3ccccc3)cc2)c1	5.7%	·	-4.5%	-4.4	·	-3.8%	·
COc1ccc(-c2c(NC(=O)c3ccco3)oc3ccc(Cl)cc3c2=O)cc1	?	10.4%	-14.6%	-6.3	16.6	-7.8%	·
Fc1ccc(Cn2cc(C(=S)N3CCOCC3)c3ccccc32)cc1	14.0%	2.8%	1.0%	-9.7	17.9	-0.9%	2.3
CCOC(=O)[C@H]1[C@H]2COc3ccc(C)cc3[C@@H]2N2C(=O)c3cc(OC)c(OC)cc3NC(=O)[C@@]12C	·	·	-8.1%	0.0	0.4	-2.9%	·
COCC(=O)N1CCC(Oc2ccc(C(=O)NCCc3ncccc3C)cc2)CC1	-13.8%	11.9%	-20.7%	7.2	-13.9	-1.4%	0.1
